Compound activity (PubChem BioAssay)
MLL AF4-AF9 inh: MLL-AF4/AF9 protein interaction inhibition. AlphaScreen, biotin-AF4 peptide binding to FLAG-AF9. inhibition, % at 10 µM. 0.47% of 350,000 active. AID 651704;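 active = every replicate reaching a set inhibition limit, whatever the replicate mean, cut at about 25% in these data; inconclusive = mean inhibition reaches that limit but some replicates miss it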;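 also: 0% = plate neutral control median and 100% = total signal loss; the record names both 10 and 1 µM as test concentration; the first replicate is given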
Target sequence (P42568 whole entry, looked up): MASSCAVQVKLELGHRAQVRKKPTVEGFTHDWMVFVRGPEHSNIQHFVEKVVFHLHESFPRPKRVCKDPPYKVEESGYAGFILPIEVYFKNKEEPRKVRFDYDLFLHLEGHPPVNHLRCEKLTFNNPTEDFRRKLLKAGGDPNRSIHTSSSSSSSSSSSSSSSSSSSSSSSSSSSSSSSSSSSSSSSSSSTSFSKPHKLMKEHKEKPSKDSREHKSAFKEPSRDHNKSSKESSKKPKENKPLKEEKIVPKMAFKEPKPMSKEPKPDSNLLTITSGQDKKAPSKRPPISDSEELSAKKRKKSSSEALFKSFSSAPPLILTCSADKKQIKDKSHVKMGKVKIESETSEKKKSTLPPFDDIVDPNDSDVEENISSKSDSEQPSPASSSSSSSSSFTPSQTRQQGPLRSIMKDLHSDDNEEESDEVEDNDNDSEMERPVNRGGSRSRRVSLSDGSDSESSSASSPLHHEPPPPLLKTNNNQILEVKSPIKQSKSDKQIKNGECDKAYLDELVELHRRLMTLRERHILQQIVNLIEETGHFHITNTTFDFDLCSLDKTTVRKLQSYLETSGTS
Beta cell apopt: blocks beta cell apoptosis | protection from apoptosis, % (test concentration not listed) | AID 435005 | INS-1E cytokine-induced death, ATP luminescence, 48 h; percent of positive-control rescue, neutral wells zero | 0.8% of 300,000 active;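 active = all replicates at 75% or more, or half of them and the mean; inconclusive = half reach 75% but not the mean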;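 also: 0% = cytokine-treated negative control wells and 100% = positive control rescue; higher means more ATP so stronger rescue from cytokine killing; wells of about 40 µL received 100 nL stock; the first replicate is given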
T cruzi inh: blocks replication of Trypanosoma cruzi | T. cruzi beta-gal in NIH3T3, luminescence, 90 h | inhibition, % (no concentration beside the values) | 1.4% of 300,000 active | AID 1885;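 active = mean inhibition across valid replicates above about 55%, limit read from the data; inconclusive = mean below that limit but half or more replicates reach it; inactive = mean below it, under half of replicates reach it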;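 also: signal also drops with host cell toxicity which is not excluded here; 0% = plate median of DMSO wells and 100% = zero luminescence signal; higher percent means less beta-gal luminescence so fewer parasites; stock transfer was 50 nL into about 50 µL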
Ecoli rRNA inh: inhibitors of bacterial rRNA selective over humanized ribosomes; GFP signal change (wild-type ribosome), % (concentration not given with the values); E. coli WT GFP vs humanized-ribosome RFP mutants, fluorescence, 24 h; hits give low values; DMSO median 0, no signal -100; 1.6% of 350,000 active;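 active = significant combined selectivity score with lowered wild-type GFP, culture density cut under 30%, mutant RFP and density less affected; inactive = any of these conditions unmet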; also: one replicate is shown; some compounds called inactive have numbers as strong as hits
RanGTP-Impb inh: inhibitors of RanGTP-importin-beta interaction, primary screen, biochemical, FRET, CFP-Ran, YFP-importin-beta, homogeneous; cell-free CFP-Ran/YFP-importin-beta FRET ratio; 1.1% of 300,000 active; inhibition, % (test concentration not listed); AID 2216;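 active = most replicates above 15%; inconclusive = exactly half above 15%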;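 also: 0% = DMSO wells and 100% = Ran loaded with GDP instead of GTP; wells of about 40 µL received 100 nL stock; the first replicate is given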
Vif TR-FRET: HIV-1 Vif–A3G interaction blockers – biochemical, TR-FRET, GST-Vif 1-94, biotin-A3G peptide, dose response retest, primary screen (AID 1117319) | TR-FRET GST-Vif / biotin-A3G peptide binding; higher % means a stronger effect; test concentration not given here; strong numbers were not always called active | inhibition, %; hits with a dose series show IC50 in µM | 0.57% of 260,000 active;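 active = above the screen mean plus three standard deviations and confirmed in dose response; inconclusive = results disagree or hit not tested in dose response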;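 also: Vif residues 1-94 fused to GST binding biotinylated APOBEC3G peptide 110-148; 0% = full assay without inhibitor and 100% = GST in place of GST-Vif; retest series ran down from 100 µM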
Calb FLC: C. albicans growth modulation with fluconazole | growth inhibition, % (concentration not given with the values) | 0.57% of 300,000 active | C. albicans CaCi-2 (fluconazole-resistant clinical isolate) + fluconazole, Alamar Blue growth, 48 h | AID 1979;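 active = most replicates above 75%; inconclusive = exactly half above 75%; inactive = most below 75%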;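 also: all wells also contain fluconazole at 8 µg/ml as a sub-toxic cotreatment; 0% = median of DMSO wells and 100% = median of geldanamycin control wells; wells of about 8 µL received 7.5 nL stock; the first replicate is given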
A1 inh: inhibitors of the anti-apoptotic protein A1, read as caspase activation. AID 2462. caspase activation, % (test concentration not listed). 0.066% of 330,000 active. MEF A1-2A-BIM cells, Caspase-Glo 3/7 luminescence, 3 h; percent of clofoctol response, vehicle zero;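 active = over half of replicate activation scores above 10%, or exactly half above 10 with the replicate mean above 10; inconclusive = replicate mean below 10 yet half the replicates above 10; inactive = over half of replicates below 10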;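 also: wells of about 30 µL received 50 nL stock; many hits fall short of the cut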
Ecoli rRNA inh OD600: further read-out of Ecoli rRNA inh, marked with its call; OD600 change, %; measured here: OD600 growth;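 optical density of the mix in the first replicate; 0 = DMSO median and -100 = no signal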
Ecoli rRNA inh RFP: second read-out of Ecoli rRNA inh, no call of its own (marks repeat the call); RFP signal change, %; measured here: RFP humanized mutant strains;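 first replicate; 0 = DMSO median and -100 = no signal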
Numbers without * were called inactive; ? = inconclusive; nt = no result given. Some of the compounds tested; the hit share may differ from the screen's.

SMILES	MLL AF4-AF9 inh	Beta cell apopt	T cruzi inh	Ecoli rRNA inh	Ecoli rRNA inh OD600	Ecoli rRNA inh RFP	RanGTP-Impb inh	Vif TR-FRET	Calb FLC	A1 inh
CP(=O)(Nc1ccc(Cl)cc1)c1nc2c(s1)CCCC2 (stereo not drawn)	-3.4	1	3	10	0	-2.5	-0.8	1%	2	0.5
COC(=O)C1=C(c2ccc(F)cc2OCc2ccccc2)C[C@@H]2CC[C@H]1N2C(=O)N1CCCCC1	2.2	2	nt	-2	-2	-8.0	nt	nt	nt	-0.3
Cc1ccc(C)c(OCC(=O)N2CCCN(C)CC2)c1	-4.4	-1	-11	15	11	-5.5	2.9	32%	-8	0.0
C=CCn1c(O)c(C=NCCN2CCOCC2)c(=O)[nH]c1=S	-6.6	-8	-8	14	9	2.7	5.3	22%	3	-0.5
CN1CCN2c3ccccc3CC3(C(=O)N(C)C(=O)N(C)C3=O)C2C1 (stereo not drawn)	-2.9	2	-11	16	-3	-0.4	3.0	-4%	15	0.5
CCCCN1C(=N)C(CC)(CC)C(=O)NC1=O	4.9	-8	-11	14	10	2.6	-6.7	4%	-6	0.2
Cc1cc(C)c(-n2c(O)c(/C=N/NC(=O)c3ccncc3)c(=O)[nH]c2=O)c(C)c1	3.1	nt	-16	6	1	1.4	4.8	18%	2	0.0
C#CCN1C(=O)C2(C(C#N)=C(N)OC(C)=C2C(=O)OCc2ccccc2)c2ccccc21 (stereo not drawn)	nt	-2	-12	nt	nt	nt	-1.2	1%	2	0.0
O=C(OCCN1CCOCC1)C1(c2ccccc2)CCCC1	0.0	0	-3	-24	-20	-1.8	0.4	-3%	-11	-0.1
C=CCn1c(O)c(N=Nc2c(C)n(C)n(-c3ccccc3)c2=O)c(=O)[nH]c1=S	-9.8	16	-21	-12	-12	-3.1	0.5	nt	3	0.9
O=C(O)C1(c2ccc(Cl)cc2)CCC1	nt	0	0	nt	nt	nt	7.3	-3%	18	-1.0
COc1ccccc1OCC(=O)N1CCCC(N(C)Cc2ccccc2)C1 (stereo not drawn)	0.7	0	19	3	2	-1.1	5.5	10%	1	-0.6
O=C(COc1ccc2ccccc2c1)N1CCN(Cc2c[nH]c3ccccc23)CC1	nt	102*	-4	-15	-17	14	-4.3	2%	-1	1.0
COCCn1cc(C(=O)N2CCC3(CC2)OCCO3)c2c3ccccc3n(C)c2c1=O	nt	-2	4	nt	nt	nt	3.3	17%	-3	-3.9
O=C(NC(=S)N1C[C@H]2C[C@H](C1)c1cccc(=O)n1C2)c1ccc(F)cc1	-8.7	-3	2	nt	nt	nt	2.9	nt	0	1.1
Cc1cccc(N2C(=O)NC(=O)/C(=C\c3ccc(N4CCOCC4)cc3)C2=O)c1	-1.1	nt	6	nt	nt	nt	6.4	0%	-10	2.6
O=C(CCN1CCCCC1)NCC(=O)Nc1ccc(Br)cc1C(=O)c1ccccc1	nt	-3	16	nt	nt	nt	-1.0	23%	?	-0.6
CN1CCC2(CC1)N=C(c1ccc(F)cc1)C(=S)N2	-3.0	-4	20	16	8	3.1	-2.2	7%	6	0.7
C=CCc1cc(C=C2C(=O)NC(=O)NC2=O)cc(OC)c1OCc1ccc(C(=O)O)cc1	nt	0	-68	nt	nt	nt	-1.7	?	-17	1.4
CCCCCn1c(=O)c(C(=O)NCc2ccncc2)c(O)c2ccccc21	nt	16	44	nt	nt	nt	5.9	13%	84*	-0.3
COc1ccc(N2CCN(C(CNC(=O)Oc3ccccc3)c3cccnc3)CC2)cc1 (stereo not drawn)	nt	2	62*	nt	nt	nt	-6.3	32%	7	-0.6
CCCCCCN=C(CC)c1c(O)n(CCCC)c(=O)[nH]c1=O	nt	11	17	nt	nt	nt	-0.8	-2%	19	-1.2
CCn1cc(C(=O)NCc2ccccc2)c2ccccc21	-1.8	0	5	0	1	4.9	-1.5	-8%	0	-0.2
COC(=O)C1=C(c2ccc(F)cc2F)C[C@@H]2CC[C@H]1N2C(=O)NCCOc1ccccc1	-1.9	13	nt	3	2	-1.1	nt	nt	nt	1.8
CCSC1=NN1c1cc(C)nc(N)n1	-111	-3	-10	-1	7	2.5	0.6	77%	-2	1.8
O=C(CF)NC(NC(=S)Nc1cccc([N+](=O)[O-])c1)C(Cl)(Cl)Cl (stereo not drawn)	6.5	-6	-14	3	-6	6.1	0.4	nt	-7	0.6
CCC(=NCc1ccco1)c1c(O)n(Cc2ccccc2)c(=O)[nH]c1=O	nt	6	-19	nt	nt	nt	?	10%	-9	0.8
CCN(CC)C(=O)c1ccc(NC(=O)c2cccc(C(F)(F)F)c2)cc1	1.6	5	-10	10	8	2.5	-2.5	-1%	-14	-0.3
Fc1cccc(C2NCCc3[nH]cnc32)c1 (stereo not drawn)	nt	-1	-1	nt	nt	nt	-1.9	nt	-41	0.1
COc1ccc(CN2C(=O)NC(=O)/C(=C/c3ccoc3)C2=O)cc1	0.2	-8	-11	29	12	32	0.9	?	-2	0.2
Cc1ccc(N2C(=O)NC(=O)/C(=C\c3cn(CC(=O)O)c4ccccc34)C2=O)cc1	-10	nt	-9	4	1	2.6	0.6	0%	-3	-0.1
CCCCn1c(C)c(C(=O)O)c2cc(OC)ccc21	-3.8	-4	-13	3	-2	-3.5	-1.3	1%	-7	0.4
N#CC1=C(N)Oc2c(c(=O)oc3ccccc23)C1c1ccccc1OC(=O)c1cccs1 (stereo not drawn)	nt	-29	-13	nt	nt	nt	-2.2	nt	-6	-0.1
COc1ccccc1CN1CCN(C(=O)Cc2ccccc2)CC1	nt	-3	-15	nt	nt	nt	4.9	0%	-3	1.1
CCCCC12CNCC(C)(CNC1)C2=O	nt	2	4	nt	nt	nt	-2.3	3%	-15	-1.1
Cc1cc(C=O)c(C)n1C1CCCCC1	nt	-1	11	nt	nt	nt	-2.9	29%	-16	-0.9
Cc1ccc(C(=O)C2(C)N(O)C(C)C(c3cccs3)=[N+]2[O-])cc1 (stereo not drawn)	1.8	-7	3	3	1	-7.9	?	4%	-15	0.3
Cc1nc2ccccc2c(=O)n1-c1ccncc1	7.9	0	-3	5	-1	-5.3	?	12%	0	-0.1
OCC[n+]1c2ccccc2nc2ccc(N3CCOCC3)cc21	2.4	15	31	nt	nt	nt	6.6	-19%	-11	-1.3
CN(C)C(=O)On1c(-c2ccccc2)nc2ccc(Cl)cc21	nt	-6	9	nt	nt	nt	-2.2	6%	3	-0.2
CC(=O)c1c(O)n(C)c(=S)n(-c2ccccc2)c1=O	nt	-1	-5	nt	nt	nt	2.6	>100µM*	13	1.1
Cc1c(C(c2ccc(Cl)cc2Cl)c2c(O)c3ccccc3oc2=O)c(=O)n(-c2ccccc2)n1C (stereo not drawn)	1.5	2	1	7	9	-4.8	0.2	nt	31	0.6
COC(=O)C1=C(c2ccc(Cl)c(C(F)(F)F)c2)C[C@@H]2CC[C@H]1N2C(=O)N1CCCC1	0.9	3	nt	-48	-78	-22	nt	nt	nt	-0.2
CN1CCN(C(=O)O[C@H]2c3nccnc3C(=O)N2c2ccc(Cl)cn2)CC1	-1.2	-3	-6	5	14	-2.1	-1.1	-7%	-3	0.4
Cc1ccc2c(c1)c(=O)c1c3n2CCN(CC#N)C3CC1 (stereo not drawn)	-1.4	nt	9	10	5	-1.3	-0.5	6%	-7	-0.2
O=C(Cn1ncc2c3ccccc3n(Cc3ccc(F)cc3)c2c1=O)N1CCC2(CC1)OCCO2	nt	1	12	nt	nt	nt	-0.1	6%	2	-0.4
COC(=O)C1=C(c2ccccc2)C[C@@H]2CC[C@H]1N2C(=O)NCCNC(C)=O	-1.6	-1	-6	11	10	-2.2	-3.6	nt	-3	0.8
COC(=O)C1=C(c2cc3ccccc3s2)C[C@@H]2CC[C@H]1N2C(=O)NCc1ccc(C(F)(F)F)cc1	3.0	-1	57*	12	-12	1.4	-0.5	nt	13	-0.3
OCc1cnc[nH]1	-4.6	-3	-2	7	8	0.9	-5.9	-1%	nt	0.4
CC(C)Oc1ccc(C2C(C#N)=C(N)Oc3c2c(=O)oc2ccccc32)cc1 (stereo not drawn)	nt	nt	0	nt	nt	nt	1.1	17%	-15	-0.7

Next results follow:
SMILES	MLL AF4-AF9 inh	Beta cell apopt	T cruzi inh	Ecoli rRNA inh	Ecoli rRNA inh OD600	Ecoli rRNA inh RFP	RanGTP-Impb inh	Vif TR-FRET	Calb FLC	A1 inh
CC(N)Cc1c[nH]c2cc3c(cc12)OCCO3 (stereo not drawn)	nt	-8	-7	nt	nt	nt	0.7	7%	8	-0.2
Cc1cccc(OC(=O)N2CCOCC2)c1	nt	4	-1	nt	nt	nt	nt	19%	-45	nt
O=[N+]([O-])c1ccc(C2C3C(c4ccccc4)=NC4(CCCC4)N32)cc1 (stereo not drawn)	1.1	13	-3	8	3	1.7	-1.9	nt	-10	0.0
COc1ccc(C(C)=O)cc1CN1CC=C(c2ccccc2)CC1	nt	-1	4	nt	nt	nt	-2.6	nt	-17	0.9
N#CCCn1cc(C(=O)Nc2ccccc2Br)c(-c2ccc3c(c2)OCCO3)n1	nt	-18	4	nt	nt	nt	2.6	nt	20	-0.4
O=C1NC(=S)NC(=O)C1=Cc1ccc2c(c1)CCN2CCCCl	nt	nt	10	nt	nt	nt	-1.6	?	0	0.2
OC(c1cccc(Cl)c1)(c1cccc(Cl)c1)C1CN2CCC1CC2 (stereo not drawn)	12	6	53	-60	-80	-13	6.5	nt	-6	-0.2
CN1CCN(c2ccc([N+](=O)[O-])c3cccnc23)CC1	nt	0	?	nt	nt	nt	0.9	-12%	-10	-0.6
CCOP(=O)(C#CC(C)(C)C)C(C)(O)c1ccccc1 (stereo not drawn)	nt	1	4	nt	nt	nt	-1.3	-5%	7	0.4
Cc1ccc(-n2cc(CNC(C)Cc3cnccn3)c(-c3cccc(C)c3)n2)cc1 (stereo not drawn)	9.9	0	35	-48	-57	-11	0.8	1%	7	0.5
O=S(=O)(c1ccccc1)N1CCCCC1c1cccnc1 (stereo not drawn)	nt	-1	-1	nt	nt	nt	1.8	0%	15	0.3
CN1CCN(c2ccc([N+](=O)[O-])c3no[n+]([O-])c23)CC1	1.9	107*	49	-8	-4	0.1	-88	7%	8	2.6
CN1CCc2nc3ccc(F)cc3c(C(N)=O)c2C1	nt	-6	5	nt	nt	nt	-2.5	?	2	-0.6
Cc1ccc(S(=O)(=O)N(C)C/N=C(\N)N[N+](=O)[O-])cc1	-0.2	-5	-10	5	4	0.8	nt	33%	3	0.1
COC(=O)C1=C(c2ccccc2OCc2ccccc2)C[C@@H]2CC[C@H]1N2C(=O)NCc1ccc(Cl)cc1	-1.4	-4	nt	10	7	0.6	nt	nt	nt	-0.7
CC(C)c1ccccc1NC1=NCCCS1	0.5	-8	-15	1	-4	-3.2	-1.9	nt	-2	0.5
CCC(=O)OC1(Cc2ccc(CC)cc2)CC(C)N(C)CC1C (stereo not drawn)	3.5	-5	14	2	-4	0.0	-1.7	4%	-7	-0.2
